KCNQ2 enhance – potentiators of rat KCNQ2 potassium channel; Potassium voltage-gated channel subfamily KQT member 2 (Rattus norvegicus), O88943; CHO-K1 KCNQ2, FluxOR thallium flux fluorescence; stronger effect = higher value; B-score at 10 µM; 310,000 tested, 0.54% active;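 active = fluorescence ratio B-score at least 3 SD of library B-scores, with initial fluorescence B-score within 3 SD, cut at about 5.3 in these data; same plate scores as AID 2156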;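 also: B-score of peak minus minimum over baseline fluorescence ratio after K+ and Tl+ stimulus; positive B-score means potentiation of KCNQ2 with more thallium influx and brighter signal; only the inactives scoring about 0 or higher are listed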
Target sequence (O88943 whole entry, looked up): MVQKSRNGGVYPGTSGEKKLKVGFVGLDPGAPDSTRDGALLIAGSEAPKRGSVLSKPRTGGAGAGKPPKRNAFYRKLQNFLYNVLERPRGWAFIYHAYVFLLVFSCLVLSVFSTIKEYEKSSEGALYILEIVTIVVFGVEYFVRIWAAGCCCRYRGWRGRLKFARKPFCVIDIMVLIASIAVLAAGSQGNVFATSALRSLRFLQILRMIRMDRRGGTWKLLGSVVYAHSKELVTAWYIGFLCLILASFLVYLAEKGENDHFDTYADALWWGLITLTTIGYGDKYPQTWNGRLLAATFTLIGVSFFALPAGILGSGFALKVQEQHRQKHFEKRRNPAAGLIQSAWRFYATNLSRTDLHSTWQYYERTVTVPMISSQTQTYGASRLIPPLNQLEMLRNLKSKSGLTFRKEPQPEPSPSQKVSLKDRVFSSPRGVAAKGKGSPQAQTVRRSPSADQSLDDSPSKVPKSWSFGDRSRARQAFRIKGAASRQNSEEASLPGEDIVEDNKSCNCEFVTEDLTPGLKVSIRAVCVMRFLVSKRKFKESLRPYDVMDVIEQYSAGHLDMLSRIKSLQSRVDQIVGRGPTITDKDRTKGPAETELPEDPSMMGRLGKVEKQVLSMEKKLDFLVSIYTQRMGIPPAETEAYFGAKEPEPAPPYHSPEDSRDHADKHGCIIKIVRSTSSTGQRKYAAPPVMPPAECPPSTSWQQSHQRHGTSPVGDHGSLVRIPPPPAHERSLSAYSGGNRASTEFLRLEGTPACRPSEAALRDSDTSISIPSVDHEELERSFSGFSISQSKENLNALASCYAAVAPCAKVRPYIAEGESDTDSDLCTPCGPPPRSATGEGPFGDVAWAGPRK
KCNQ2 enhance baseline – further read-out of KCNQ2 enhance, marked with its call; B-score; compound at 10 µM; measured here: initial fluorescence intensity artifact check;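 brightness before thallium and not channel activity; 0 = typical well and far values either way flag optical interference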
The depositor's hits bear a star.

SMILES	KCNQ2 enhance	KCNQ2 enhance baseline
COc1ccc(N(CC(=O)Nc2cc([N+](=O)[O-])ccc2C)S(C)(=O)=O)cc1OC	0.79	-0.75
COc1cc(/C=C/C(=O)OCC(=O)NC(=O)NC(C)(C)C)ccc1OCC#N	0.05	0.03
Cn1c(=O)oc2cc(S(=O)(=O)Nc3ccc(O)cc3)ccc21	1.07	3.68
O=C(CCS(=O)(=O)c1ccccc1)NCCS(=O)(=O)c1ccccc1	0.62	-0.13
O=C(NCCCN1CCc2ccccc2C1)C1CCN(S(=O)(=O)N2CCCC2)CC1	0.35	-0.12
COc1cccc(C2Nc3ccccc3C(=O)N2c2ccc(F)cc2)c1O (centres undefined)	0.17	-1.24
CCOC(=O)Cn1nc(-c2ccccc2)ccc1=O	0.83	-1.51
O=C1C2CC=CCC2C(=O)N1c1ccc(NCCc2ccccc2F)c([N+](=O)[O-])c1 (centres undefined)	0.44	-2.54
N#Cc1ccc(C(=O)Nc2ccc([N+](=O)[O-])cc2)c(F)c1	0.01	2.64
COc1ccc(Cc2nc3ccc(C(=O)NCCn4ccnc4C)cc3o2)cc1OC	1.37	-0.34
COc1ccc(-c2ncc(CN3CCN(CCC(C)C)C(CCO)C3)cn2)cc1 (centres undefined)	1.11	1.7
O=C(NCc1ccccc1)c1ccc(Cl)nc1	0.51	0.44

Some of these compounds in order of length of the SMILES, ascending.
SMILES	KCNQ2 enhance	KCNQ2 enhance baseline
Cn1c(=O)oc2cc(S(=O)(=O)Nc3ccc(O)cc3)ccc21	1.07	3.68
COc1ccc(-c2ncc(CN3CCN(CCC(C)C)C(CCO)C3)cn2)cc1 (centres undefined)	1.11	1.7
O=C(NCCCN1CCc2ccccc2C1)C1CCN(S(=O)(=O)N2CCCC2)CC1	0.35	-0.12

Next section.
SMILES	KCNQ2 enhance	KCNQ2 enhance baseline
CN1CCN(C(=O)CSc2ccc(C(F)(F)F)cc2[N+](=O)[O-])CC1	0.43	0.36
COC(=O)c1c(NC(=O)c2cccc(N3C(=O)CCC3=O)c2)sc2c1CCN(C(C)=O)C2	0.83	0.96
Cc1ccc(C(=O)NCCNC(=O)c2ccccn2)cc1	0.19	-0.18
Cc1csc(SCC(=O)Nc2cccc(S(=O)(=O)N3CCCC3)c2)n1	1.44	-0.02
CC(C)CC(=O)Nc1ccc2c(c1)OCO2	0.55	-0.23
CCCCC(=O)Nc1ccc(C(=O)Nc2ccc(OC)cc2[N+](=O)[O-])cc1	0.35	2.83
CCOC(=O)C1=C(C)N=C2SC(C)C(=O)N2C1c1ccccc1 (centres undefined)	0.19	0.01
CCOC(=O)c1nn(-c2ccc(C)cc2)c(=O)cc1OCC(=O)Nc1cccc(C)c1	0.15	-1.33
O=C(Nc1cc([N+](=O)[O-])ccc1N1CCOCC1)c1cccs1	0.88	0.06
O=C(COC(=O)c1ccc2c(c1Cl)C(=O)c1ccccc1C2=O)NC1CCCCC1	0.22	0.44
C=CCn1c2ccccc2c(=O)c2cc(C#Cc3ccsc3)ccc21	1.78	-1.28
CCCCCCCn1c(=N)n(CC(=O)c2ccco2)c2ccccc21	1.19	-1.28
CCc1cc(=O)oc2cc(C)cc(OCC(=O)NC3CCN(Cc4ccccc4)CC3)c12	0.65	-0.51
COc1ccc(CCN(C)S(=O)(=O)c2ccc(Cl)nc2)cc1OC	0.6	-0.05
Cc1ccc(SCC(=O)NN=C2CCN(C)CC2)cc1	0.02	1.51
O=C(Nc1nccs1)c1ccc[nH]c1=O	0.06	0.31
O=C(COC(=O)C1CC2CCCC(C1)C2=O)NNC(=O)c1ccc([N+](=O)[O-])cc1 (centres undefined)	1.24	-0.26
O=C(CN1C(=O)c2cccc3cccc1c23)NC1CCCC1	0.42	-1.93
N#CCCN1CCCc2cc(N=Nc3ccc(C(F)(F)F)cc3)ccc21	1.4	-1.71
O=C(Nc1cccc(S(=O)(=O)NC2=NCCCCC2)c1)c1cccnc1Cl	2.35	0.05
Cc1ccc(CNC(=O)c2ccc(NC(=O)C3=CSCCO3)cc2)cc1	0.81	-1.08
O=c1cc(O)nc(SCc2ccccc2)n1-c1ccc(Cl)cc1	0.82	-2.1
CC(C(=O)Nc1ccc(O)c(C(=O)O)c1)N1C(=O)/C(=C/c2cccs2)SC1=S (centres undefined)	1.38	2.29
N=C1c2ccccc2CN1NC(=O)COc1ccc(Cl)cc1	0.39	-1.53
O=C(Cc1cnn(-c2ccccc2)c1)c1ccc(O)c(O)c1O	0.49	-0.18
COC(=O)/C=c1/sc2n(c1=O)CCN=2	2.03	1.29
CC1=C(C(=O)Nc2ccccc2C(=O)N2CCC(C)CC2)SCCO1	1.31	0.06
CC(=O)NC(c1ccc2ccccc2c1)c1ccc2cccnc2c1O (centres undefined)	0.07	-0.03
COC(=O)/C(C#N)=C\c1c(OC)[nH]c2ccccc12	0.13	0.57
Cc1ccccc1NC(=O)c1ccc(CN2CCc3ccccc3C2)cc1	1.04	-1.74
O=C(NCc1ccncc1)C(=O)NCc1ccncc1	0.17	-0.3
Fc1ccc(-c2cnc[nH]2)cc1	1.13	-0.24
Cc1cc(C(=O)CSc2n[nH]c(N)n2)c(C)n1-c1cccc(F)c1	0.49	-0.59
Cc1cc(OCC(=O)N2CCC(C(=O)O)CC2)c2c(C)cc(=O)oc2c1	0.4	0.71
CC1(NC(=S)Nc2ccc(NC(=S)NC3(C)CCS(=O)(=O)C3)cc2)CCS(=O)(=O)C1 (centres undefined)	0.67	-3.71
COc1ccc(OC)c(N(CC(=O)Nc2ccccc2C(=O)NCc2ccco2)S(C)(=O)=O)c1	0.81	-0.09

Some of the entries so far, with two lines to a compound:
Each structure is followed by: KCNQ2 enhance, KCNQ2 enhance baseline
- COC(=O)/C=c1/sc2n(c1=O)CCN=2
    2.03, 1.29
- Cc1ccccc1NC(=O)c1ccc(CN2CCc3ccccc3C2)cc1
    1.04, -1.74

Carrying on:
SMILES	KCNQ2 enhance	KCNQ2 enhance baseline
COc1cc(/C=N/NC(=O)CC#N)cc(Br)c1O	2.8	-0.17
CCOC(=O)c1c(NC(=O)C2CCCO2)sc(C(=O)OC(C)(C)C)c1C (centres undefined)	0.04	-1.56
O=C(c1cccc([N+](=O)[O-])c1)N1CC2C3C=CC(C3)C2C1 (centres undefined)	0.43	0.3
Cc1nc2sccc2c(=O)n1-c1cccc(Cl)c1	0.09	-0.39
O=S(=O)(Nc1cccc(-n2cnnn2)c1)c1cc(Cl)ccc1Cl	0.3	-1.72
COc1ccc(/C=C/C(=O)c2cc3c(cc2N)OCO3)cc1	0.02	0.28
CC(=O)c1c(C)nn(C(=O)N2CCOCC2)c1C	0.43	-0.57
Cc1ccc(C)c(Cn2nnc3c(=O)[nH]c(C4CCCN(S(=O)(=O)Cc5ccccc5)C4)nc32)c1 (centres undefined)	0.31	0.01
O=C1COC(c2ccccc2)C2CCCCN12 (centres undefined)	0.78	1.45
O=C(Nc1cccc(C(F)(F)F)c1)c1cc2ncc(Br)cn2n1	0.28	0.58
CCn1c(SC(C)C)nnc1C1CCN(S(=O)(=O)c2ccc(OC)cc2)CC1	1.76	-0.12
Cc1cc(NC(=O)Nc2ccccc2Cl)no1	0.67	-1.14
CC(C)(C)c1ccc(OCCCN2CCCC2)cc1	0.44	-0.87
CCOC(=O)c1c(N)c(C#N)c2n1CCCC2	0.16	-0.62
O=C(NC1CCCCC1)NC1CC2CCC(C1)N2C(=S)NCc1ccco1 (centres undefined)	0.11	0.35
COc1cccc(NC(=O)CCN2C(=O)c3ccccc3S2(=O)=O)c1	1.28	-1.94
COc1ccc(N2CCN(C(=O)CCNC(=O)Cn3ccc4ccccc4c3=O)CC2)cc1	0.42	0.28
CCC(C)NCCOCCSc1ccc(Cl)cc1 (centres undefined)	2.26	-1.58
Cn1nc(C(=O)OCc2ccccc2F)c2ccccc2c1=O	0.85	0.24
CCCn1nnc(NC(=O)/C=C/c2ccco2)n1	1.09	1.48
Cc1ccccc1CS(=O)(=O)CCC(=O)NCCN1CCN(c2cccc(Cl)c2)CC1	0.73	-0.79
COc1ccc(C2=NN(C(=O)CCC(=O)O)C(c3ccc(OC)cc3)C2)cc1 (centres undefined)	0.1	0.71
Cc1ccc(Cc2cnc(NC(=O)/C(C#N)=C/c3ccc(-c4cccc([N+](=O)[O-])c4)o3)s2)cc1	0.35	0.02
N/C(CN1CCCC1=O)=N\OC(=O)c1ccc(Cl)cc1	1.42	0.05
CC(=O)Nc1ccc(NC(=O)c2c([N+](=O)[O-])c(C(C)(C)C)nn2C)cc1	0.09	0.13
CC(=O)Nc1cccc(C(=O)N/N=C/c2c[nH]c3ccccc23)c1	0.27	-0.44
Cc1ccc(NC(=O)CN(C)C(=O)c2ccc(Cl)c([N+](=O)[O-])c2)cc1	0.83	0.49
C=CCn1c(SCC(=O)Nc2ccc(C(=O)OCC)cc2)nnc1-c1cccs1	0.96	-0.08
CC1COC2C(O1)N(S(C)(=O)=O)CCN2S(C)(=O)=O (centres undefined)	1.05	-0.72
COc1ccccc1N1CCN(C2CC(=O)N(c3cccc(Br)c3)C2=O)CC1 (centres undefined)	1.97	-0.31
Cn1c2ccccc2c2ncn(Cc3ccco3)c(=O)c21	0.68	-1.51
O=C(NC(=S)Nc1ccc2[nH]c(=O)[nH]c2c1)c1ccccc1[N+](=O)[O-]	0.16	0.22
COc1ccc2[nH]cc(CCNC(=O)C3CCCO3)c2c1 (centres undefined)	0.59	-0.18
CCOc1ccc(C2(C)CC(=O)N(C)C2=O)cc1 (centres undefined)	0.62	0.81
COCCCNc1nc2c(-c3cccc(C(F)(F)F)c3)nnn2c2ccccc12	0.01	0.67
Oc1ccc(/C=N/N2CCN(c3ccccn3)CC2)cc1	0.59	0.03
O=C(Nc1ccc(S(=O)(=O)NC2CCCCC2)cc1)c1ccc(Br)o1	0.67	-0.46
Cc1nn(-c2cc(N3CCOCC3)ccc2N)c(=O)c2ccccc12	0.2	-1.76
COc1ccccc1C(O)(C(=O)NN(C)c1ccccc1)c1ccccc1OC	0.24	0.56
Oc1ccc(C[C@H]2CNCCN2CCc2cc(C(F)(F)F)cc(C(F)(F)F)c2)cc1	0.05	-1.43
COc1ccc(N2CC(C(=O)Nc3cc(C)on3)CC2=O)cc1 (centres undefined)	1.22	1.26
COc1ccc(N2CC(NC(=O)N(C)CCC#N)CC2=O)cc1 (centres undefined)	0.93	-0.36
Nc1oc2ccccc2c(=O)c1C=O	1.2	-0.09
CCOc1nc(C)cc(C)c1S(=O)(=O)c1ccc(Cl)cc1	1.12	0.97
CCCn1c(SCC(=O)Nc2c(C)cccc2C)nnc1C(C)C	1.54	0.06
C/C(Cn1nc([N+](=O)[O-])cc1C)=N\NC(=O)COc1ccc(Cl)cc1Cl	0.17	0.86
CC(=O)c1c(C)[nH]c(C(=O)N2CCc3ccccc32)c1C	2.67	0.67
COC(=O)c1ccc(Oc2nc(NC(C)(C)C)nc(N3CCOCC3)n2)cc1	0.9	-1.65

Laid out differently: 4 of the compounds above
COC(=O)c1ccc(Oc2nc(NC(C)(C)C)nc(N3CCOCC3)n2)cc1
  KCNQ2 enhance: 0.9
  KCNQ2 enhance baseline: -1.65
C/C(Cn1nc([N+](=O)[O-])cc1C)=N\NC(=O)COc1ccc(Cl)cc1Cl
  KCNQ2 enhance: 0.17
  KCNQ2 enhance baseline: 0.86
COc1ccc(N2CC(C(=O)Nc3cc(C)on3)CC2=O)cc1 (centres undefined)
  KCNQ2 enhance: 1.22
  KCNQ2 enhance baseline: 1.26
O=C(Nc1ccc(S(=O)(=O)NC2CCCCC2)cc1)c1ccc(Br)o1
  KCNQ2 enhance: 0.67
  KCNQ2 enhance baseline: -0.46

Going on with the list.
SMILES	KCNQ2 enhance	KCNQ2 enhance baseline
O=[N+]([O-])c1ccc(C(O)CN2CCN(Cc3ccccc3)CC2)cc1 (centres undefined)	0.65	-0.7
CCCCN(CCCC)CCNC(=O)CN1C(=O)CSc2ccc(S(=O)(=O)N3CCCCC3)cc21	0.56	-1.26
O=C(C1=C[C@@H]2[C@H]3C(=O)N(c4ccc(Cl)cc4)C(=O)[C@H]3[C@@H](C(=O)c3ccc(Cl)cc3)N2C=C1)c1ccccc1	1.18	0.08
Cc1cc(C)c(C)c(S(=O)(=O)N2CCN(C(=O)c3ccc4c(=O)n5c(nc4c3)CCC5)CC2)c1C	0.09	-0.5
COCCN1C(=O)c2ccc(C(=O)Nc3nccs3)cc2C1=O	0.71	-2.35
CC(C)OCCCN(C)C1CCN(S(=O)(=O)c2ccc(-c3ccc(=O)[nH]n3)s2)CC1	0.31	1.47
N#Cc1ccccc1OCCn1cncn1	0.41	0.02
COc1ccc(C2/C(=C(\O)c3ccc(OC)c(Cl)c3)C(=O)C(=O)N2CCN(C)C)cc1 (centres undefined)	0.99	0.65
COC(=O)c1ccc(C(=O)N2CCCC(Nc3ccc(C(C)C)cc3)C2)cc1 (centres undefined)	0.45	0.31
OC(c1ccccn1)c1c[nH]c2ccccc12 (centres undefined)	0.67	-0.9
CN1c2ccc([N+](=O)[O-])cc2N(C)C1(C)c1ccccc1 (centres undefined)	0.41	-1.8
O=C(NC1CCCCC1)c1cc(C(=O)c2ccccc2Br)c[nH]1	0.49	-0.43
O=C(Nc1nccs1)c1cccnc1	0.79	-1.25
COc1ccc(C(C)(C)C)cc1NC(=O)C1CC=CCC1C(=O)O (centres undefined)	1.4	0.34
NS(=O)(=O)c1ccc(CCNC(=O)COC(=O)C2CCC2)cc1	0.19	-2.74
CC1(C)C(=O)NCCN1C(=O)CSc1nccc(-c2ccc(Br)cc2)n1	1.62	3.27
CCCCCCNC(=O)Cc1ccc(Br)cc1	3.46	-1.59

Screening data: PubChem BioAssay, Johns Hopkins Ion Channel Center

A portion of the library; the hit share may differ from the screen's.
